VACV Venus inh: qHTS for Stage-Specific Inhibitors of Vaccinia Orthopoxvirus: Venus Reporter Primary qHTS; 330,000 tested, 0.46% active; Vaccinia virus Venus reporter expression, fluorescence; AID 720580, 2013; Potency, µM (highest dose often 36.5 µM), without a hit: top-dose activity change, negative = inhibition, actives largely listed as inhibitors; active means well fitted inhibition curve with a large enough effect; inconclusive means small, poorly fitted or top-dose-only effect; inactive means no such curve, though single readings can be large or run the other way; tested in A549 cells; further: nearly all actives have a fitted effect of over 30% in size; inactives centre near -10
VACV mCherry inh: qHTS for Stage-Specific Inhibitors of Vaccinia Orthopoxvirus: mCherry Reporter Primary qHTS; Vaccinia virus mCherry reporter infection, fluorescence; about a quarter of the inactives have no number; Potency, µM (doses to about 36.5 µM), for inactives: at the highest dose activity change, negative = inhibition, most hits filed as inhibitors; 310,000 tested, 0.63% active; AID 720579, 2013; active = well fitted inhibition curve with a large enough effect; inconclusive = small, poorly fitted or top-dose-only effect; inactive = no such curve, though single readings can be large or run the other way; tested in A549 cells; further: nearly all actives have a fitted effect of over 35% in size; inactives centre near -10
* hit, by the source's call; i = inactive; ? = inconclusive; nt = not tested or not shown; & = joins results of further samples; [ ] = another dose, or the depositor's remark. On the % scale 0 is the no-effect control and ±100 the full control effect; potency means the concentration at half of the fitted maximal effect.

canonical_smiles	VACV Venus inh	VACV mCherry inh
COc1cc(C)c(C)cc1S(=O)(=O)N1CCCCC1c1cccnc1 (centres undefined)	-6.8%	-12.4%
CCN(CC)S(=O)(=O)c1ccc(C)c(NC(=O)CNc2cccc(S(=O)(=O)N3CCCC3)c2)c1	-27.2%	-11.8%
Cc1ccc(SCc2cn3cc(Cl)ccc3n2)cc1	-6.9%	-9.6%
CSc1ccc(/C=C2\C=Cc3cc([N+](=O)[O-])ccc32)cc1	-10.6%	-12.9%
COc1ccc(NC(=O)CSc2nnc(Cn3cnc4ccccc43)o2)cc1	-6.7%	-0.4%
O=C(O)CC1C(=O)NCCN1Cc1cccs1 (centres undefined)	-3.1%	i
CC1CCCCN1S(=O)(=O)c1ccc(C(=O)Nc2nnc(C3CC3)o2)cc1 (centres undefined)	-20.6%	-26.0%
COc1ccc(CCNc2ncnc3cc(OC)c(OC)cc23)cc1OC	-21.4%	i
Cc1ccc(F)cc1NC(=O)CSc1nc(-c2cccs2)cc(C(F)(F)F)n1	-20.6%	-18.2%
Cc1cccc(NS(=O)(=O)c2cc3c(cc2C)N(C)CCO3)c1	-9.7%	-11.0%

The final two records of the section above lead into the next:
canonical_smiles	VACV Venus inh	VACV mCherry inh
Cc1ccc(F)cc1NC(=O)CSc1nc(-c2cccs2)cc(C(F)(F)F)n1	-20.6%	-18.2%
Cc1cccc(NS(=O)(=O)c2cc3c(cc2C)N(C)CCO3)c1	-9.7%	-11.0%
Cc1ccc(NC(=O)CC(O)(C(F)(F)F)C(F)(F)F)c(Br)c1	-20.0%	-26.3%
O=C(CSc1nccn1-c1ccc(F)cc1)Nc1ccc(OC(F)(F)F)cc1	-18.1%	i
O=c1cc(O)c2c(=O)n(-c3ccccc3)c3c(c2o1)CCCCCC3	5.0%	-7.3%
Cc1cc(C)cc(OCC(=O)N/N=C/c2ccco2)c1	-6.2%	6.8%
O=C(C[C@@H]1NS(=O)(=O)OC2CCCCC21)c1ccccc1 (some centres undefined)	-10.1%	i
COC(=O)CSC1=C(C#N)C(c2ccc(C)cc2)C2=C(CCCC2=O)N1 (centres undefined)	-2.1%	nt
Cc1cc(C)c2cc(CN(CCCO)S(=O)(=O)c3ccccc3F)c(=O)[nH]c2c1	1.2%	-4.1%
CCOC(=O)c1sc(NC(=O)c2nc(SCC)ncc2Cl)c(C(=O)OCC)c1C	-6.3%	-9.8%
Cc1ccc(N2C(=O)CC(N(O)C3CC(=O)N(c4ccc(C)cc4)C3=O)C2=O)cc1 (centres undefined)	-2.5%	-3.9%
O=C(COC(=O)c1cc(Cl)ccc1O)Nc1cc(C(F)(F)F)ccc1N1CCOCC1	-6.3%	-14.1%
Cc1ccc([C@@H]2C[C@H]3[C@@H](CN2S(=O)(=O)c2ccc(C)cc2)C(=O)C[C@@H](c2ccc(C)cc2)N3S(=O)(=O)c2ccc(Cl)cc2)cc1	-5.4%	-1.6%
CCc1nnc(NC(=O)CN2CCN(Cc3ccccc3C)CC2)s1	-6.4%	-15.3%
O=C(COC(=O)c1cccc(S(=O)(=O)N2CCOCC2)c1)Nc1ccc2c(c1)OCO2	-15.2%	-3.0%
CCOc1ccc(S(=O)(=O)Nc2cccc(-c3ccc(N4CCCC4)nn3)c2)cc1	-22.6%	-3.6%
Cc1ccc(Cl)cc1Nc1nc(-c2sc(NC(=O)C(C)(C)C)nc2C)cs1	-13.1%	?
CCOc1ccc(-c2c(C(=O)N/N=C/c3ccccc3)nnn2-c2nonc2N)cc1	-6.7%	-5.5%
Cc1ccc(S(=O)(=O)NCCC(=O)N2CCOCC2)cc1C	-9.8%	i
Nc1ccc2oc(-c3ccccc3Br)nc2c1	-9.0%	-12.3%
CCOc1ccc2c(c1)c(=O)c(S(=O)(=O)c1ccc(CC)cc1)cn2Cc1cccc(Cl)c1	-2.2%	-2.6%
O=C(CC12CC3CC(CC(C3)C1)C2)NCC(c1ccc(F)cc1)N1CCOCC1 (centres undefined)	-9.0%	i
Cc1cnc(NC(=O)Cn2cnc3c2c(=O)n(C)c(=O)n3C)s1	-25.2%	i
O=C(Nc1ccc2c(c1)OCO2)c1csc([C@@H]2C[C@H](O)[C@@H](CO)O2)n1	-10.3%	1.9%
COc1ccc(OCCSc2nc3ccccc3n2CC(=O)N2CCOCC2)cc1	7.0%	-6.8%
O=C(CN(C(=O)C1COc2ccccc2O1)c1ccccc1)NCC1CCCO1 (centres undefined)	-13.5%	-9.9%
COc1ccc2c(Sc3ccccc3)c(C(=O)NCc3cc(Br)ccc3OC)[nH]c2c1	-21.3%	-25.4%
Cc1ccc(C)c(N2CCN(C(=O)CN3CCSc4ccc(S(=O)(=O)N(C)C)cc43)CC2)c1	-12.0%	-18.6%
O=C1NC[C@H](CCCCN2C[C@H](Cc3ccccc3)N(Cc3ccccc3)C(=O)C2=O)N(CC2CCCCC2)C1=O	-0.5%	-7.5%
Cc1ccc(CNc2nc3nc(C)c(Cl)c(C)n3n2)cc1	-8.1%[7.34 µM]	-13.5%[7.34 µM]
CCOc1ccc(OC(=O)c2c(-c3ccccc3Cl)noc2C)cc1	-19.8%	-12.9%
COc1ccc2nc(-c3ccccc3)[nH]c(=O)c2c1	-12.0%	i
Cc1ccc(NC(=O)c2ncn(CCCNCCCN(C)C)n2)cc1C	-10.9%	-8.2%
COc1cc(OC)c(Nc2nc3ccccc3nc2-n2nc(C)cc2C)cc1Cl	-7.8%	-7.1%
CCCCCCn1c(SCCOC)nc2c1c(=O)[nH]c(=O)n2C	-27.2%	?
O=C(Nc1cccc(-c2csc(Nc3cccc(C(F)(F)F)c3)n2)c1)c1cc([N+](=O)[O-])cc(C(F)(F)F)c1	-29.7%	?
CC(C)c1cnc2c(c1SCC(=O)c1ccc(Cl)cc1)c(=O)n(C)c(=O)n2C	-8.4%	-3.1%
COC(=O)COc1cccc(NC(=O)c2cc(OC)cc(OC)c2)c1	-0.7%	-13.1%
CC1=C(C(=O)OCc2ccc3c(c2)OCO3)C(c2ccccc2OCc2ccccc2)NC(=O)N1 (centres undefined)	-25.3%	-9.1%
CC(=O)Oc1ccc(-c2ccc(C(=O)OCC(=O)N(C)CC(=O)Nc3ccccc3Cl)cc2)cc1	?	?
Cc1ccccc1-c1nc2cc(NC(=O)c3cccc(OCCC(C)C)c3)ccc2o1	-18.0%	-3.1%
O=C1CC2CCCC(C1)S2=O (centres undefined)	-4.1%	i
CCN1C(=O)[C@H]2[C@@H](c3ccc(-c4ccc(F)cc4)c(OC)c3)N[C@@](C)(C(=O)OC)[C@H]2C1=O	-21.7%	-2.8%
CC1(C)Cc2cccc(OCC(=O)N3CCN(c4ccccc4F)CC3)c2O1	-13.7%	-13.3%
COc1ccc(OCCOC(=O)CN2C(=O)NC3(CCCC3)C2=O)cc1	-18.2%	-9.8%
Cc1ccc(C2CC(C(F)F)n3ncc(C(=O)Nc4cnn(Cc5ccccc5C)c4)c3N2)cc1 (centres undefined)	-15.6%	nt
CCOc1cc(C2C3=C(CCCC3=O)N(CCC(=O)O)C3=C2C(=O)CCC3)ccc1OS(=O)(=O)c1ccc(C)cc1	-11.4%	i
COC(=O)c1cc(NC(=O)CSC2=NCCS2)cc(C(=O)OC)c1	-7.6%	i
CCn1c2ccccc2c2cc(NC(=O)CC(C)=O)ccc21	-23.4%	-15.1%
COCCNc1ncnc2c1ncn2[C@H]1CN(Cc2ccc(Cl)cc2)C[C@@H](CO)O1	7.3%	2.7%
CCOc1cc(C(=O)Nc2ccc(S(=O)(=O)Nc3nnc(CC)s3)cc2)cc(OCC)c1OCC	-1.8%	i
Cc1cccc(C(=O)Nc2ccc(C(=O)OCc3cc(=O)n4nc(CC(C)C)sc4n3)cc2)c1	-15.1%	-14.8%

Further entries follow.
canonical_smiles	VACV Venus inh	VACV mCherry inh
COc1cccc(-c2nc(CS(=O)(=O)CC(=O)N3CCN(c4cc(C)ccc4C)CC3)c(C)o2)c1	?	-28.4%
CC(=O)Nc1ccc(Nc2cc(N(C)C)c3nonc3c2[N+](=O)[O-])cc1	-6.0%	i
NC(=O)c1ccc[n+](Cc2cccc3ccccc23)c1	1.7%	-2.3%
CC(CC(=O)NC1CCSC1=O)c1ccccc1 (centres undefined)	-8.5%	i
COc1cccc(-c2cc(C(=O)N/N=C/c3ccco3)c3ccccc3n2)c1	-12.0%	-0.5%
CC(Sc1nnc(-c2ccccc2)c(-c2ccccc2)n1)C(=O)N1CCc2ccccc21 (centres undefined)	-4.5%	-0.2%
Cc1oc(-c2ccccc2Cl)nc1CS(=O)(=O)CC(=O)NCCN1CCOCC1	-21.9%	-6.3%
COc1cccc(-c2nnc(NC(=O)c3ccc(S(=O)(=O)N(CC(C)C)CC(C)C)cc3)o2)c1	-21.3%	-25.6%
COc1cccc(N(C(=O)c2ccco2)C(C(=O)NC2CCCC2)c2ccc(N(C)C)cc2)c1 (centres undefined)	-9.0%	nt
COc1cccc(NC(=O)CSc2ccc3nnc(-c4ccncc4)n3n2)c1	-3.0%	-12.7%
O=C(N[C@H]1CP(=O)(Oc2ccccc2)O[C@H](COCc2ccccc2)[C@H]1O)C(Cl)(Cl)Cl (some centres undefined)	-11.0%	i
CCOC(=O)c1cnc2c(cnn2C)c1Cl	-17.1%	-1.8%
Clc1ccccc1CN1CCN(/N=C/C=C\c2ccco2)CC1	2.9%	-2.3%
Nc1sc2c(c1C(=O)NC1CCS(=O)(=O)C1)CCC2 (centres undefined)	2.4%	-1.5%
COC(=O)c1c(-c2ccc(Br)cc2)csc1NC(=O)Cc1ccc(OC)c(OC)c1	-22.4%	nt
CNCC(=O)NCC(=O)N[C@@H](Cc1ccccc1)C(=O)N[C@@H](CC(C)C)C(=O)O	-4.4%[3.33 µM]	i[3.33 µM]
O=c1c2c3n(c(=O)nc2[nH]n1-c1ccccc1)CCCCC3	4.9%	nt
COc1ccc(NC(=O)CC2SC(=Nc3ccccc3)NC2=O)cc1 (centres undefined)	1.5%	-8.5%
CC(c1nc2ccccc2[nH]1)n1c(=O)c(-c2cccs2)nc2ccccc21 (centres undefined)	4.9%	-0.5%
Cc1ccc(C(=O)Nc2ccccc2N2CCCC2)cc1	-18.6%	i
COc1ccc(NC(=O)C(=O)NCC2CCCN2S(=O)(=O)c2cccs2)cc1 (centres undefined)	-24.3%	?
CC(=O)c1cccc(NC(=O)c2onc(C)c2Cl)c1	-8.0%	i
Cc1cc(C)nc(SCC(=O)Nc2ccc(S(=O)(=O)Nc3nccs3)cc2)n1	-8.5%	i
COc1ccccc1C(=O)N1CCCC1(C#N)c1ccccc1 (centres undefined)	-13.3%	nt
COc1ccc(S(N)(=O)=O)cc1C(=O)NCCCN1CCN(c2ccccc2OC)CC1	1.8%	-4.2%
COCCCNC(=O)C[C@H]1C[C@H](C(=O)N2CCOCC2)[C@@]2(CCC3CCCC3)c3[nH]c4cc(CCC(=O)N(C)C)ccc4c3CCN2C1=O	-6.7%	i
Cc1ccc(N(CC(C)C)S(=O)(=O)c2nnc(NC(=O)C(C)C)s2)cc1	-4.0%	-7.1%
Cc1nn(C)cc1C(=O)NNC(=S)Nc1ccccc1	14.8%	20.3%
CC1(C(=O)NCc2ccc(C(F)(F)F)cc2)CCN1Cc1ccccc1OC(F)F (centres undefined)	-0.8%	-2.2%
Cc1ccc(NC(=S)N/C(=N/S(=O)(=O)c2ccccc2)c2ccccc2)cc1	-11.0%&-11.8%	-22.5%&-1.0%
CCN1C(=O)/C(=C\c2cccs2)C(C(=O)OC)=C1C	-7.7%	nt
Cc1ccc(S(=O)(=O)N(CC(=O)N(C(C)C)C(C)C)C(=O)N2CCN(C)CC2)cc1	0.0%[7.34 µM]	18.5%[7.34 µM]
COc1ccc(C(C(=O)NC2CCCCC2)N(C(=O)c2sc(C)nc2C)c2ccccc2C)cc1 (centres undefined)	-20.1%	-24.7%
CCCNC(=O)COC(=O)c1ccc(N2CCCC2)c([N+](=O)[O-])c1	-15.5%	-12.9%
Cc1ccc(CS(=O)(=O)c2ncn[nH]2)cc1	3.6%	i
COc1ccc2[nH]cc(CCO)c2c1	-9.3%	i
CC(=O)c1ccc(OCc2c(-c3ccccc3)nnn2CC(=O)NS(=O)(=O)c2ccccc2C)cc1	1.8%	-2.3%
CCc1ccc(-n2c(=O)c3c(C)c(C(=O)N(C)C)sc3n(CC(=O)NCC3CCCO3)c2=O)cc1 (centres undefined)	1.2%	-14.5%
CN(C)c1ccc(C(=O)OCc2cc(=O)n3ccsc3n2)cc1	-10.0%	-16.9%
CCOC(=O)c1ccc(NC(=O)c2ccc3c(c2)OCO3)cc1	-22.9%	-5.3%
Cc1ccc(C)c(-c2csc(-c3c(N)c(C(=O)c4ccc5c(c4)OCO5)n4ccccc34)n2)c1	-14.4%[7.34 µM]	-14.0%[7.34 µM]
COC(=O)C(=Nc1ccccc1)/C(C(=O)C(=O)N(C)c1ccccc1)=C(\O)c1ccccc1	-1.9%	-7.4%
CC(C)CC12CN3CCN(CC(C3)C1O)C2 (centres undefined)	-5.8%	-11.4%
COC(=O)c1ccc(N=Cc2c(C(F)(F)F)[nH][nH]c2=O)cc1	4.8%	i

Source: PubChem BioAssay
